Source: PubChem
Rango complex inh – inhibitors of Rango-importin beta complex formation; Q14974; Rango CFP/YFP FRET sensor + importin beta, 45 min; Potency, µM (titrated, usually from 92.2 µM), inactives show at the highest dose inhibition of complex formation; hit rate 0.031% among 340,000; AID 540263; active = rising FRET ratio curve, often small or poorly fitted; inconclusive = mostly compound fluorescence or quenching in the first reads; inactive = flat curves in all reads;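 also: potency is read from the fitted curve at half-maximal effect; 0% = DMSO wells and 100% = buffer wells lacking importin beta; nearly all actives have a fitted effect of over 15% in size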
Target sequence (Q14974 whole entry, looked up): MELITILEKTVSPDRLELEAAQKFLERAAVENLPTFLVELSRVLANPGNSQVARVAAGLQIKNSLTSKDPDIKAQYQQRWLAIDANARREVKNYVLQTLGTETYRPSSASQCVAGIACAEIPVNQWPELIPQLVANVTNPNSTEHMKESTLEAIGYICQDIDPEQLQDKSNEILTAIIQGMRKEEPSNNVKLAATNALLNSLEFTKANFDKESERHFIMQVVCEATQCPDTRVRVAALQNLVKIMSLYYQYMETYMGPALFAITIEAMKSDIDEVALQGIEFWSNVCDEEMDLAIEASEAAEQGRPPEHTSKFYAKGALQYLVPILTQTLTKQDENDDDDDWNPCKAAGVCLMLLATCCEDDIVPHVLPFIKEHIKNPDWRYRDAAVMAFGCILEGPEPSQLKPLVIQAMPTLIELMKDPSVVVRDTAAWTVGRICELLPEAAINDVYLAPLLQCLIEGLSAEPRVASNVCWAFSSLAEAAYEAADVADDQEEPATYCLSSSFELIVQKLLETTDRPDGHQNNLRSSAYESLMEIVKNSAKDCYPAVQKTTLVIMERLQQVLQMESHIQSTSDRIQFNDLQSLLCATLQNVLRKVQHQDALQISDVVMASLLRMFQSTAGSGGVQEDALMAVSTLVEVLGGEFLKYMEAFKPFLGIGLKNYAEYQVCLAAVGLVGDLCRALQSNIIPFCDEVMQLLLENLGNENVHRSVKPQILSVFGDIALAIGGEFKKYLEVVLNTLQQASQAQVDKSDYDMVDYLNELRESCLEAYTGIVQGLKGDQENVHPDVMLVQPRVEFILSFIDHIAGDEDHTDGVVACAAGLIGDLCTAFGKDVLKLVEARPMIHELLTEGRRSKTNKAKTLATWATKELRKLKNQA
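Inhibition scored from the CFP 486 nm/YFP 530 nm FRET ratio 45 min after adding 0.125 microM importin beta to 50 nM Rango biosensor preincubated 5 min with compound (room temperature, PBS with DTT, Tween-20, BSA). No-importin wells as positive control.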
miR-21 reporter – raises the signal of a miR-21 reporter. 340,000 tested, under 10 active. Potency, µM (top dose mostly 38.3 µM), for the others: top-dose reporter change, positive = more light. HeLa miR-21 FLuc reporter, luciferase, 48 h. AID 2288; active = well fitted rising curve with a large enough effect; inconclusive = small, poorly fitted or top-dose-only effect; inactive = no such curve, though single readings can be large or run the other way;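 also: % of control where 0% means no effect; miR-21 action dims this reporter so a rising signal means less miR-21 action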
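Compounds were titrated across several concentrations (up to approximately 40 uM) and incubated 48 hours with HeLa miR-21-FLuc reporter cells (miR-21 target sequence downstream of FLuc, endogenous miR-21). Readout was firefly luciferase luminescence after lytic detection reagent.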
GLA inh pH 4.5 – alpha-galactosidase A (human) inhibition, pH 4.5 | P06280 | purified enzyme, 4-MU-alpha-Gal fluorescence, pH 4.5 | activity change, negative = inhibition, % at 105 µM | 230,000 tested, under 10 active | AID 1467; inconclusive = small, poorly fitted or top-dose-only inhibition, or a rising curve; inactive = flat fitted curve, though single readings scatter; no compound was filed as active;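 also: 0% = full activity with enzyme and -100% = basal without enzyme; dose as in the result columns while the protocol names 77 µM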
Rango release inh – prevents RanGTP from dissociating the Rango-importin beta complex | Biochemical FRET Rango-importin beta, RanGTP-induced dissociation | Potency, µM (series often up to 46.1 µM), without a hit: at the highest dose activity change, negative = inhibition | hit rate 0.071% among 340,000 | AID 540253; active means falling FRET ratio curve, often poorly fitted, with flat reads before Ran was added; inconclusive means other falling curves, or compound fluorescence or quenching; inactive means flat or rising ratio curve;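 also: potency is read from the fitted curve at half-maximal effect; % of control where 0% means no effect; nearly all actives have a fitted effect of over 45% in size; -100% = wells without RanGTP and RCC1; the record marks most hits as doubtful in a second field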
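Recombinant Rango FRET biosensor (EYFP–snurportin 1 IBB–cerulean CFP10) at 0.1 uM premixed with 0.25 uM importin beta in PBS, 1 mM DTT, 0.02% Tween-20, 0.1% BSA. Compound added 5 min; RanGTP-RCC1 (0.6 uM Ran, 2 mM GTP, 0.2 uM RCC1) then triggers release, read at 45 min.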
The depositor's hits bear a star. Some of the compounds tested (hit frequency here may not be typical).

O=S(=O)(NCC(c1ccco1)N1CCN(c2ccc(F)cc2)CC1)c1ccc(F)cc1 (stereo not given) was read as Rango complex inh -1.5%, miR-21 reporter 3%, GLA inh pH 4.5 3 and Rango release inh 0%.
`CCN(CC)CC(=O)N1c2ccccc2CCc2ccc(NC(=O)c3cc(OC)c(OC)c(OC)c3)cc21` gave Rango complex inh -2.3%, miR-21 reporter 0%, GLA inh pH 4.5 -14 and Rango release inh -21%.
Screening Fc1ccccc1OCCCCn1cncn1 returned Rango complex inh -1.6%, miR-21 reporter -14%, GLA inh pH 4.5 5 and Rango release inh 9%.
CN(C(=O)C(Cl)Cl)C1CC2C=CC1C2 (stereo not given) was read as Rango complex inh -4.4%, miR-21 reporter 10%, GLA inh pH 4.5 0 and Rango release inh -11%.
Screening COCCn1c(SCC(=O)NC2CCCC2)nc2c(c1=O)SCC2 returned Rango complex inh 1.3%, miR-21 reporter 1% and Rango release inh 7%.
`O=C(CSc1nnc(-c2cccc(Cl)c2)o1)Nc1ccc2c(c1)OCCO2` gave Rango complex inh -2.8%, miR-21 reporter -56%, GLA inh pH 4.5 -11 and Rango release inh 9%.
COc1cc(C)ccc1S(=O)(=O)n1nc(C)cc1C was read as Rango complex inh 0.2%, miR-21 reporter 0%, GLA inh pH 4.5 -1 and Rango release inh 2%.
CC(C)(C)c1ccc(S(=O)(=O)N2CCN(C3CCCC3)CC2)cc1 was read as Rango complex inh -5.6%, miR-21 reporter 0% and Rango release inh -3%.
For Cc1ccccc1Cn1cc(NC(=O)c2cc(-c3ccco3)on2)cn1 the results were Rango complex inh -0.8%, miR-21 reporter -12%, GLA inh pH 4.5 7 and Rango release inh 15%.
For CCC(=O)NNC(=O)CCC(=O)Nc1ccccc1 the results were miR-21 reporter -4% and GLA inh pH 4.5 10.
Screening O=C(Nc1cccc(O)c1)c1cccc(C(=O)Nc2cccc(O)c2)c1 returned Rango complex inh 2.1%, miR-21 reporter 0% and Rango release inh 2%.
For CCOc1ccc(C(=O)C[n+]2cccc3cc(C)ccc32)cc1 the results were Rango complex inh -1.6%, miR-21 reporter inconclusive and Rango release inh -13%.
Screening Cc1ccc(C)c(S(=O)(=O)C(C#N)c2nc3ccccc3nc2N2CCCC2)c1 (stereo not given) returned Rango complex inh inconclusive, miR-21 reporter -11%, GLA inh pH 4.5 8 and Rango release inh inconclusive.
`O=C(CNC(=O)c1ccc(S(=O)(=O)N2CCCC2)cc1)N/N=C/c1ccco1` gave Rango complex inh -0.1%, miR-21 reporter 3%, GLA inh pH 4.5 3 and Rango release inh inconclusive.
O=C(Nc1ccc([N+](=O)[O-])cc1)Nc1ccc2[nH]c(=O)[nH]c2c1 was read as Rango complex inh inconclusive, miR-21 reporter 4%, GLA inh pH 4.5 2 and Rango release inh 3%.
For COc1ccc(C(CNC(=O)CCNC(=O)c2ccc(Br)cc2)N2CCOCC2)cc1 (stereo not given) the results were Rango complex inh -0.1% and Rango release inh 20%.
`COc1cc(C)c(CN2CCN(CC(=O)Nc3ccccc3C(=O)NC3CC3)CC2)cc1OC` gave Rango complex inh -0.3% and Rango release inh 0%.
`COCCn1ccc(O)c(Cc2ccccc2)c1=O` gave Rango complex inh inconclusive, miR-21 reporter -4%, GLA inh pH 4.5 5 and Rango release inh 14%.
For COc1ccc2c(CC(=O)NNC(=O)c3ccc(C)cc3)coc2c1 the results were Rango complex inh 2.6% and Rango release inh 10%.
Screening N#Cc1ccc(C(=O)CSc2nnc(-c3ccc(C(F)(F)F)cn3)s2)cc1 returned Rango complex inh -0.1%, miR-21 reporter -2%, GLA inh pH 4.5 -6 and Rango release inh -8%.
For CCOC(=O)N1CCC(NC(=O)C2CCC(CNS(=O)(=O)c3ccc(OC)cc3)CC2)CC1 (stereo not given) the results were Rango complex inh 0.8%, miR-21 reporter -4%, GLA inh pH 4.5 8 and Rango release inh 6%.
Cc1noc2ncnc(Oc3cc(Cl)ccc3Cl)c12 was read as Rango complex inh -0.9%, miR-21 reporter -2%, GLA inh pH 4.5 1 and Rango release inh 8%.
`O=C(O)c1ccc(CSc2nc3ccc(N4C(=O)C5C6C=CC(C6)C5C4=O)cc3s2)cc1` (stereo not given) gave Rango complex inh -0.1%, miR-21 reporter -3%, GLA inh pH 4.5 2 and Rango release inh -4%.
`Cc1cc(CSCc2ccc(Cl)cc2)no1` gave Rango complex inh 0.2%, miR-21 reporter -2% and Rango release inh 10%.
Screening Cc1c(C(=O)NCC2COc3ccccc3O2)oc2ccc(S(=O)(=O)N(C)C3CCCCC3)cc12 (stereo not given) returned Rango complex inh 2.3%, miR-21 reporter 19%, GLA inh pH 4.5 -11 and Rango release inh -11%.
Screening CCN(CC(=O)Nc1ccccc1C(F)(F)F)C(=O)CCc1ccccc1 returned Rango complex inh -0.6%, miR-21 reporter -1% and Rango release inh 1%.
For O=S(=O)(NC1CCCCCCC1)c1ccccc1F the results were Rango complex inh -0.3%, miR-21 reporter -3% and Rango release inh -3%.
For O=C(CSc1cccc[n+]1[O-])Nc1cc(S(=O)(=O)N2CCOCC2)ccc1Cl the results were Rango complex inh 0.7%, miR-21 reporter -1%, GLA inh pH 4.5 1 and Rango release inh 1%.
`COCC1CCCC1OS(N)(=O)=O` (stereo not given) gave Rango complex inh -2.0%, miR-21 reporter 0% and Rango release inh 16%.
Screening O=C(c1ccc2[nH]ccc2c1)N1CCCC(Nc2ccccc2)C1 (stereo not given) returned Rango complex inh -4.5%, miR-21 reporter 2% and Rango release inh -18%.
O=C(NC1CCN(S(=O)(=O)c2ccccc2)CC1)c1cccc(F)c1 was read as Rango complex inh -1.1%, miR-21 reporter -4% and Rango release inh -15%.
`Cc1cs/c(=N\N=C\c2ccccc2)n1Cc1ccco1` gave Rango complex inh -4.0%, miR-21 reporter -26%, GLA inh pH 4.5 -12 and Rango release inh -12%.
O=[N+]([O-])c1cc(-c2cnc3ccccc3n2)ccc1Oc1ccc(Br)cc1 was read as Rango complex inh -0.8%, miR-21 reporter -33%, GLA inh pH 4.5 -4 and Rango release inh -16%.
CC(=O)Nc1ccc(S(=O)(=O)NC2CC3CCC2C3)cc1 (stereo not given) was read as Rango complex inh -3.4%, miR-21 reporter 4% and Rango release inh 2%.
`COc1cc2c(cc1OC)CN(CC(=O)Nc1ccc(Cl)cc1Cl)CC2` gave Rango complex inh inconclusive, miR-21 reporter 0% and Rango release inh -12%.
Screening Nc1cc(-c2ccccc2)nn1S(=O)(=O)c1ccc(Br)cc1 returned Rango complex inh 3.2%, miR-21 reporter 1%, GLA inh pH 4.5 -15 and Rango release inh 0%.
CC(CC(=O)NNC(=O)c1cccc(Cl)c1)c1ccccc1 (stereo not given) was read as Rango complex inh -0.5%, miR-21 reporter -4% and Rango release inh -10%.
COc1ccccc1NS(=O)(=O)c1cc(C(=O)NCCCN2CCCC2=O)ccc1C was read as Rango complex inh 0.2% and Rango release inh inconclusive.
For Nc1ccccc1C(=O)NCc1ccc(Cl)cc1 the results were Rango complex inh 0.3%, miR-21 reporter -10%, GLA inh pH 4.5 -2 and Rango release inh -2%.
`Cc1ccccc1NC(=O)CC(O)(C(F)(F)F)C(F)(F)F` gave Rango complex inh 9.7%, miR-21 reporter 1%, GLA inh pH 4.5 4 and Rango release inh -15%.
Cc1ccc(N=Cc2sccc2C)cc1C was read as Rango complex inh -0.2%, miR-21 reporter -2%, GLA inh pH 4.5 -5 and Rango release inh 8%.
`CC1CC=C(c2ccccc2)C(=S)N1` (stereo not given) gave Rango complex inh 0.1%, miR-21 reporter 1%, GLA inh pH 4.5 -2 and Rango release inh 14%.
For Cc1nnc(NC(=O)C(C)Sc2nncn2C)s1 (stereo not given) the results were Rango complex inh 0.6%, miR-21 reporter -2%, GLA inh pH 4.5 9 and Rango release inh 10%.
CCN(CC)CCOC(=O)C1(c2ccccc2)CCOCC1 was read as Rango complex inh 6.9%, miR-21 reporter 0%, GLA inh pH 4.5 6 and Rango release inh 1%.
`CCCN(CCO)Cc1cccc(Br)c1` gave Rango complex inh 3.6%, miR-21 reporter 0%, GLA inh pH 4.5 0 and Rango release inh -2%.
For Cn1c(SCc2nc(-c3ccc(Cl)cc3)no2)nnc1-c1ccco1 the results were Rango complex inh 2.0%, miR-21 reporter -2%, GLA inh pH 4.5 -4 and Rango release inh -5%.
Screening CCC(c1nnc(SCC(=O)Nc2ccc(S(N)(=O)=O)cc2)n1Cc1ccccc1)N(C)C (stereo not given) returned Rango complex inh 6.1%, miR-21 reporter -3%, GLA inh pH 4.5 -27 and Rango release inh 1%.
For S=c1[nH]nc(-c2cc(-c3ccccc3)n[nH]2)n1/N=C/c1ccc(Cl)c(Cl)c1 the results were Rango complex inh 3.0%, miR-21 reporter -12%, GLA inh pH 4.5 -6 and Rango release inh -6%.
Screening S=C(Nc1cccnc1)Nc1ccccn1 returned Rango complex inh -1.9%, miR-21 reporter -8% and Rango release inh 0%.
For Cc1ccccc1-n1nc2c(c1NC(=O)C(C)(C)C)CS(=O)(=O)C2 the results were Rango complex inh -6.7%, miR-21 reporter -6% and Rango release inh 5%.
Screening Cn1c(-c2ccc(F)cc2)cnc1SCC(=O)N1CCCc2ccccc21 returned Rango complex inh -1.5%, miR-21 reporter -15%, GLA inh pH 4.5 -4 and Rango release inh -6%.
Screening CCNc1nc(NCC)nc(N(C)N)n1 returned Rango complex inh 4.0%, miR-21 reporter -2%, GLA inh pH 4.5 6 and Rango release inh -12%.
For COc1ccc(SCCCn2c(=O)c3c(ncn3C)n(C)c2=O)cc1 the results were Rango complex inh 6.0%, miR-21 reporter -12% and Rango release inh 1%.
Cc1ccc(C(=O)Nc2ccc(C(F)(F)F)n(C)c2=O)cc1 was read as Rango complex inh 0.8%, miR-21 reporter -36%, GLA inh pH 4.5 6 and Rango release inh 14%.
CC(NC(=O)C(c1ccccc1)c1ccccc1)c1ccccc1 (stereo not given) was read as Rango complex inh 0.6% and Rango release inh 12%.
For CCOc1ccc(OCC)c(NC(=O)Cn2cccc2)c1 the results were Rango complex inh -5.6%, miR-21 reporter -10%, GLA inh pH 4.5 10 and Rango release inh 0%.
For O=c1ccc2cc(S(=O)(=O)N3CCN(c4cc(Cl)ccc4Cl)CC3)ccc2o1 the results were Rango complex inh 3.7%, miR-21 reporter 6%, GLA inh pH 4.5 -5 and Rango release inh 4%.
Screening CN(CC(=O)Nc1ccccc1Cl)C(=O)COC(=O)Cc1ccc(F)cc1 returned Rango complex inh 3.5%, miR-21 reporter 0% and Rango release inh 11%.
Screening Cc1cccc(C)c1OCC(=O)N/N=C/c1ccncc1 returned Rango complex inh -0.3%, miR-21 reporter -7%, GLA inh pH 4.5 -4 and Rango release inh 19%.
`CCC(C)(C)NC(=O)CN(Cc1ccc(OC)cc1)C(=O)CCC(=O)Nc1nccs1` gave Rango complex inh -0.3%, miR-21 reporter 5% and Rango release inh 2%.
For O=C(CSCc1ccc(Cl)cc1)Nc1ccc2c(c1)OCO2 the results were Rango complex inh -0.2%, miR-21 reporter -26%, GLA inh pH 4.5 3 and Rango release inh 20%.
`CN(C)N1C(N)=C(C#N)C(c2cccc([N+](=O)[O-])c2)C2=C1CC(C)(C)CC2=O` (stereo not given) gave Rango complex inh 0.4%, miR-21 reporter 4% and Rango release inh -12%.
`Cc1cc2[nH]c(=O)c3ccccc3n2n1` gave Rango complex inh 0.3%, miR-21 reporter -4%, GLA inh pH 4.5 6 and Rango release inh 1%.
O=C(N1CCC(n2nc(-c3ccccc3)oc2=O)CC1)C1(c2ccccc2)CC1 was read as Rango complex inh 2.6%, miR-21 reporter -13% and Rango release inh 0%.

Three entries from above, sorted by length of the SMILES, ascending.
For O=C(CSCc1ccc(Cl)cc1)Nc1ccc2c(c1)OCO2 the results were Rango complex inh -0.2%, miR-21 reporter -26%, GLA inh pH 4.5 3 and Rango release inh 20%.
O=C(N1CCC(n2nc(-c3ccccc3)oc2=O)CC1)C1(c2ccccc2)CC1 was read as Rango complex inh 2.6%, miR-21 reporter -13% and Rango release inh 0%.
`CCC(C)(C)NC(=O)CN(Cc1ccc(OC)cc1)C(=O)CCC(=O)Nc1nccs1` gave Rango complex inh -0.3%, miR-21 reporter 5% and Rango release inh 2%.
